Bioassay records from PubChem BioAssay.
FGF22 binding = binders of human FGF22 protein, primary screen, FGF22 synaptogenesis inhibitor project, biophysical, thermal shift, single point; Fibroblast growth factor 22 (Homo sapiens), Q9HCT0; recombinant FGF22 thermal shift, SYPRO orange fluorescence; percent of sucrose octasulfate shift, DMSO zero; calls only at 9.99 µM; 340,000 tested, 1.5% active; AID 651658, 2012;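 active = melting point raised past a set limit in the mean and every replicate; inconclusive = no clear call; three in four hits are not shown here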
Target sequence (Q9HCT0 whole entry, looked up): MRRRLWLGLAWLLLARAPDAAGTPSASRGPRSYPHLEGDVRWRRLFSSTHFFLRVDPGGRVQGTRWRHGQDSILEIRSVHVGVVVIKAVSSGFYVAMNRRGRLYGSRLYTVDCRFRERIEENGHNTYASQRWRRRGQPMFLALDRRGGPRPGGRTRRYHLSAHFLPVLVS
Calb FLC = C. albicans growth inhibition with fluconazole, primary screen, CaCi-2 strain, Alamar Blue fluorescence; AID 1979, 2009; C. albicans CaCi-2 (fluconazole-resistant clinical isolate) + fluconazole, 48 h; growth inhibition, % (concentration not given with the values); 300,000 tested, 0.57% active;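 active = most replicates above 75%; inconclusive = exactly half above 75%; inactive = most below 75%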;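 also: all wells also contain fluconazole at 8 µg/ml as a sub-toxic cotreatment; 0% = median of DMSO wells and 100% = median of geldanamycin control wells; wells of about 8 µL received 7.5 nL stock; the first replicate is given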
AF4-AF9 inh = inhibitors of AF4 peptide binding to AF9, primary screen, biochemical, AlphaScreen, biotin-AF4 peptide, FLAG-AF9, single point; Protein AF-9 (Homo sapiens), P42568; inhibition, % at 10 µM; 350,000 tested, 0.47% active;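 active = every replicate reaching a set inhibition limit, whatever the replicate mean, cut at about 25% in these data; inconclusive = mean inhibition reaches that limit but some replicates miss it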;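 also: 0% = plate neutral control median and 100% = total signal loss; the record names both 10 and 1 µM as test concentration; the first replicate is given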
Target sequence (P42568 whole entry, looked up): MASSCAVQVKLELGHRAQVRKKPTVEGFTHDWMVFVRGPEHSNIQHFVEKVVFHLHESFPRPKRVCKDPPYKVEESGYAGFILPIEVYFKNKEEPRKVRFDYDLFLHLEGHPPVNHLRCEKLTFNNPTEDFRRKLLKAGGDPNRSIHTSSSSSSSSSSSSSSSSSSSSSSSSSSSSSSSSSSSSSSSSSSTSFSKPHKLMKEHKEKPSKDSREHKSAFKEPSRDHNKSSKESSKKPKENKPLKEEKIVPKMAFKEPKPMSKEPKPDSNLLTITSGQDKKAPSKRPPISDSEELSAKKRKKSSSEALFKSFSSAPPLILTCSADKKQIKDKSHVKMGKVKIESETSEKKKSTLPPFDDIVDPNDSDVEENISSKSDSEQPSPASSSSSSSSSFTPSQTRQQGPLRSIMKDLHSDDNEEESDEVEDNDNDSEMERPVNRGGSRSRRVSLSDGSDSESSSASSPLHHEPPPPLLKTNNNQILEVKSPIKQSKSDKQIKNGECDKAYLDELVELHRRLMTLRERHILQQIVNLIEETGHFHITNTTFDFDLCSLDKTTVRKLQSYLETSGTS
Beta apoptosis = inhibitors of cytokine-induced beta cell apoptosis, primary screen, luminescence | INS-1E cytokine-induced death, ATP luminescence, 48 h; percent of positive-control rescue, neutral wells zero | protection from apoptosis, % (concentration not given with the values) | 300,000 tested, 0.8% active | AID 435005, 2010;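 active = all replicates at 75% or more, or half of them and the mean; inconclusive = half reach 75% but not the mean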;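 also: 0% = cytokine-treated negative control wells and 100% = positive control rescue; higher means more ATP so stronger rescue from cytokine killing; wells of about 40 µL received 100 nL stock; the first replicate is given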
rRNA inh HTS = reduced GFP signal of wild-type E. coli, primary screen, bacterial rRNA inhibitor project, GFP/RFP fluorescence, OD600, single point. E. coli WT GFP vs humanized-ribosome RFP mutants, 24 h; active compounds read low; DMSO median 0, no signal -100. GFP signal change (wild-type ribosome), % (test concentration not listed). 350,000 tested, 1.6% active. AID 720706, 2013;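 active = significant combined selectivity score with lowered wild-type GFP, culture density cut under 30%, mutant RFP and density less affected; inactive = any of these conditions unmet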; also: one replicate is shown; some compounds called inactive have numbers as strong as hits
RanGTP-Imp inh = inhibitors of RanGTP-importin-beta interaction, primary screen, biochemical, FRET, CFP-Ran, YFP-importin-beta, homogeneous | Ran GTPase (GTP-bound) - importin-beta complex | cell-free CFP-Ran/YFP-importin-beta FRET ratio | inhibition, % (no concentration beside the values) | 300,000 tested, 1.1% active | AID 2216, 2009;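 active = most replicates above 15%; inconclusive = exactly half above 15%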;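 also: 0% = DMSO wells and 100% = Ran loaded with GDP instead of GTP; wells of about 40 µL received 100 nL stock; the first replicate is given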
T cruzi repl = inhibitors of intracellular T. cruzi growth, primary screen, luminescence, NIH3T3 host cells | T. cruzi beta-gal in NIH3T3, 90 h | inhibition, % (no concentration beside the values) | 300,000 tested, 1.4% active;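 active = mean inhibition across valid replicates above about 55%, limit read from the data; inconclusive = mean below that limit but half or more replicates reach it; inactive = mean below it, under half of replicates reach it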;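 also: signal also drops with host cell toxicity which is not excluded here; 0% = plate median of DMSO wells and 100% = zero luminescence signal; higher percent means less beta-gal luminescence so fewer parasites; stock transfer was 50 nL into about 50 µL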
ALR H2O2 inh = inhibitors of human ALR sulfhydryl oxidase, primary screen, biochemical, H2O2 detection, HRP-luminol luminescence, single point | FAD-linked sulfhydryl oxidase ALR (Homo sapiens), P55789 | 290,000 tested, 3.8% active | inhibition, % (concentration not given with the values) | purified ALR, DTT oxidation;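 active = mean and each replicate at 75% or more; inconclusive = only one of the two met; inactive = neither met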;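 also: stock transfer was 7.5 nL into about 7.5 µL; 0% = neutral wells and 100% = wells with inactivated enzyme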
Target sequence (P55789 whole entry, looked up): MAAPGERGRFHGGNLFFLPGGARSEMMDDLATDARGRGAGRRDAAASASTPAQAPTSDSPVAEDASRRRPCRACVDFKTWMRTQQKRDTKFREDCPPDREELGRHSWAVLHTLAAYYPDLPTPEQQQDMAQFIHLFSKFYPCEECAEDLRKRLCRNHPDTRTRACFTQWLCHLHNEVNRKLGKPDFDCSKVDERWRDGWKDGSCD
rRNA inh HTS OD600 = second read-out of rRNA inh HTS, no call of its own (marks repeat the call); OD600 change, %; measured here: OD600 growth;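 optical density of the mix in the first replicate; 0 = DMSO median and -100 = no signal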
rRNA inh HTS RFP = second read-out of rRNA inh HTS, no call of its own (marks repeat the call); RFP signal change, %; measured here: RFP humanized mutant strains;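 first replicate; 0 = DMSO median and -100 = no signal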
* marks the source's active call; other numbers are inactive results; i = inactive; ? = inconclusive; nt = not tested or not shown; & = joins results of further samples. The list is partial; count on the stated rates, not on these rows.

SMILES | FGF22 binding | Calb FLC | AF4-AF9 inh | Beta apoptosis | rRNA inh HTS | rRNA inh HTS OD600 | rRNA inh HTS RFP | RanGTP-Imp inh | T cruzi repl | ALR H2O2 inh
Cc1ccc(/C=c2\sc3nc(-c4ccccc4Br)nn3c2=O)o1 | nt | 1.2 | nt | -3.2 | nt | nt | nt | -0.7 | -3.2 | 55.7
Cc1ccc(CN2C(=O)N/C(=C/c3cc(C)n(-c4ccccn4)c3C)C2=O)cc1 | i | 0.1 | 4.2 | 0.8 | 4.2 | -1.6 | -8.8 | -1.7 | 39.9 | -1.4
COc1ccc(C(=O)Nc2nnc(S(=O)(=O)N3CCOCC3)s2)cc1 | i | 23.6 | -3.0 | 3.4 | 13.6 | 6.8 | 0.8 | -1.7 | -5.9 | 4.4
COc1cc(/C=C2\OC(=O)c3c(OC)cccc32)ccc1O | nt | 0.3 | nt | 13.1 | nt | nt | nt | 12.6 | -1.8 | 61.3
CCc1ccc2c(c1)/C(=N/OC)C(=O)N2 | i | 22.7 | 1.3 | -1.8 | 3.3 | 2.8 | 1.1 | 2.6 | -4.1 | -6.2
O=C(CC(=O)N/N=C/c1ccccc1)NCc1ccccc1 | i | 5.2 | 0.1 | -8.2 | 8.8 | 1.9 | 0.9 | ? | 9.8 | -0.6
O=[N+]([O-])c1ccc(C(=S)N2CCC(Cc3ccccc3)CC2)cc1 | nt | -28.9 | nt | 4.5 | nt | nt | nt | 0.0 | 28.4 | nt
O=C(CSc1n[nH]c(=O)n1C1CC1)N1N=C(c2ccc(Cl)cc2)CC1c1ccco1 (stereo not given) | i | -9.6 | 10.9 | 0.8 | -10.3 | -12.4 | 10.0 | -4.4 | 14.8 | nt
O=C(Nc1cccc(Cl)c1)Nc1cc(S(=O)(=O)N2CCOCC2)ccc1N1CCCC1 | nt | -1.6 | 3.7 | 6.9 | nt | nt | nt | 1.4 | 18.9 | 2.8
CCN=C(NCC)SC1CC(=O)N(c2ccc(OC)cc2)C1=O (stereo not given) | i | -1.7 | -2.1 | -4.8 | 2.4 | 4.7 | -0.5 | 9.0 | -4.5 | -1.4
O=C(CCc1nc2ccccc2c(=O)[nH]1)Nc1cc(C(F)(F)F)ccc1N1CCOCC1 | i | -8.2 | -1.1 | 6.9 | -0.9 | -1.8 | -0.9 | 2.7 | 2.5 | -11.3
N#CC1=C2N=C(N)c3ccccc3N2C2=C(C(=O)CCC2)C1c1ccc(F)cc1 (stereo not given) | i | 15.0 | -15.7 | -0.8 | -31.6* | -3.8* | -0.1* | -4.6 | 14.8 | nt
COc1ccc(CNC(=O)COC(=O)/C=C/c2cccs2)cc1 | nt | -4.9 | nt | -1.4 | nt | nt | nt | 1.9 | 3.1 | -11.6
O=C1CC(c2c[nH]c3ccccc23)C(=O)N1 (stereo not given) | nt | -6.4 | nt | -4.0 | nt | nt | nt | -2.0 | -10.3 | -13.5
Cc1cc(NC(=O)COC(=O)C2CCN(S(=O)(=O)c3ccccc3)CC2)c([N+](=O)[O-])cc1C | i | 1.7 | -10.9 | -7.3 | 1.5 | 0.7 | 2.1 | 6.1 | 2.3 | -3.2
COc1cc(/C=N/NC(=O)c2ccc(-n3cccc3)cc2)ccc1O | nt | -9.4 | nt | 29.7 | nt | nt | nt | ? | -6.8 | 99.3*
CCCCCCNc1nc(NCc2ccco2)nc(OCC)n1 | nt | -4.8 | nt | nt | nt | nt | nt | 2.2 | 10.8 | -6.1
O=C(NCCCN1CCN(CCCNC(=O)c2cccc([N+](=O)[O-])c2)CC1)c1cccc([N+](=O)[O-])c1 | i | ? | 9.1 | 0.4 | 6.8 | 10.1 | -1.5 | 2.6 | 56.0* | -44.0
CC1(C)Cc2c(sc(NC(=O)C(=O)N3CCOCC3)c2C#N)CO1 | i | 23.4 | -3.6 | -1.1 | -0.2 | -13.5 | -3.4 | -1.5 | -5.7 | 1.4
O=C(CN(Cc1ccc2c(c1)OCO2)C(=O)CNC(=O)c1ccco1)NC1CCCCC1 | nt | -7.0 | nt | -10.9 | nt | nt | nt | 2.1 | -7.9 | 7.0
NC(=S)Nc1nc2ccccc2s1 | i | 10.4 | -0.5 | -4.6 | -13.9 | 1.3 | 8.9 | -1.6 | 2.2 | 93.8*
CC(C)(C)SCCNC(=O)Nc1ccccc1 | i | -1.9 | -1.1 | -0.9 | 0.0 | 2.8 | 0.4 | 6.5 | -11.8 | 4.2
CC1(c2ccc(OC(F)F)cc2)NC(=O)N(/N=C/c2c(O)ccc3ccccc23)C1=O (stereo not given) | i | 12.0 | -0.1 | nt | nt | nt | nt | 7.1 | -8.8 | -3.8
Cc1ccc(CNC(=O)c2ccc(CS(=O)(=O)c3ccccc3)o2)cc1 | i | 5.1 | -22.7 | -5.4 | 0.0 | -0.2 | -2.6 | 8.0 | -2.6 | -22.4
NC(=O)c1nn(-c2ccccc2)c(=O)cc1O | nt | -11.7 | nt | 0.4 | nt | nt | nt | -0.7 | -20.1 | nt
CC(=O)Nc1cccc2c1OCCO2 | nt | -6.9 | nt | -9.8 | nt | nt | nt | -4.0 | -15.6 | -16.5
CC1(C)N=C(/C=N/O)CN1O | nt | -8.9 | nt | -2.1 | nt | nt | nt | 3.0 | -9.3 | -2.0
CN(CC(=O)Nc1ccc(N2CCOCC2)cc1)C(=O)c1ccc(O)c(Cl)c1 | i | -3.7 | -1.6 | -3.2 | 0.3 | 2.3 | 0.1 | -1.2 | -3.1 | 31.9
CC(Oc1ccc(S(=O)(=O)N2CCCC2)cc1[N+](=O)[O-])C(=O)N(C)c1ccccc1 (stereo not given) | i | -3.4 | 1.2 | 2.3 | 8.8 | 7.1 | 1.8 | -3.7 | 0.8 | -5.0
Cc1noc(C)c1NC(=O)Nc1cccc2c1O[C@@H](CN(C)Cc1ccc3c(c1)OCO3)[C@@H](C)CN([C@H](C)CO)C2=O | i | nt | -2.5 | -4.8 | 1.6&18.1 | 5.1&17.2 | -2.2&4.4 | nt | nt | -3.3
COCCn1c(SCC(=O)Nc2cc(C)on2)nnc1C(C)C | nt | 3.1 | 0.8 | 4.9 | 8.1 | 5.5 | 2.6 | 0.2 | -3.0 | 2.5
COc1ccc(C(=O)/C=C/C(=O)N(CC(=O)NC2CCCCC2)Cc2ccc(F)cc2)c(O)c1 | i | -15.3 | -0.6 | nt | 2.4 | 3.9 | 2.1 | 1.3 | 58.8* | nt
CC(C)(/C=N/O)/[N+]([O-])=C/c1ccccc1C(F)(F)F | nt | -6.8 | nt | 3.1 | nt | nt | nt | 1.5 | -2.5 | -5.2
O=C(O)/C=C\C(=O)Nc1cccc(C(=O)Nc2cccc(O)c2)c1 | nt | 13.1 | 0.1 | -7.6 | -0.8 | 5.5 | -0.2 | 0.5 | -21.4 | 0.4
CCCCn1c(CCNC(=O)c2ccco2)nc2ccccc21 | i | -7.3 | -1.9 | 1.0 | 3.1 | -3.5 | 2.1 | 1.4 | 1.9 | -16.2
CC1(c2ccccc2Br)NC(=O)N(CC(=O)Nc2ccc(S(N)(=O)=O)cc2)C1=O (stereo not given) | i | -3.1 | -3.6 | 0.3 | 2.3 | 6.2 | 1.2 | -0.7 | 3.2 | 0.7
Oc1nc(-c2ccc(Cl)cc2)n2ccncc12 | i | 5.7 | 2.1 | 9.0 | 4.7 | 9.6 | 0.2 | 0.4 | 4.0 | 53.6
CCn1cc(C(=O)OCc2ccccc2)c(=O)c2ccc(C)nc21 | nt | 43.4 | nt | -1.1 | nt | nt | nt | 5.4 | 0.3 | 4.7
O=C(CN1CCN(S(=O)(=O)c2ccc(Br)cc2)CC1)Nc1ccccc1F | nt | -25.9 | nt | 4.1 | nt | nt | nt | 1.7 | 14.0 | -3.9
O=[N+]([O-])c1cc2c(cc1C=Nc1ccccc1)OCO2 | nt | 16.2 | nt | 0.8 | nt | nt | nt | 0.2 | 1.8 | nt
O=C(N1CCCCC1)C1(c2ccccc2)CCCCC1 | i | 12.3 | -2.6 | nt | 1.3 | 4.5 | -6.7 | 2.6 | 3.8 | -0.3
COC(=O)[C@]1(C)CCC[C@@]2(C)C3CC[C@@]4(C)C[C@]3(CCC21)CC(=O)N4Cc1ccc(OC)cc1 (stereo not given in full) | i | nt | 2.4 | 16.7 | -2.5 | -3.5 | 1.1 | nt | nt | -6.3
Cc1ccc(NC(=O)NCCCN2CCCC2=O)cc1 | nt | -3.1 | nt | -2.1 | nt | nt | nt | -0.1 | -17.7 | -4.2
Nc1c(-c2cccc(Cl)c2)cnn1-c1cccc(C(F)(F)F)c1 | nt | -28.5 | nt | 8.7 | nt | nt | nt | -2.3 | 14.7 | 14.6
CC(=O)Nc1ccc(S(=O)(=O)N2CCSCC2)cc1 | nt | -6.8 | nt | 1.8 | nt | nt | nt | 1.3 | -7.3 | 38.0
Cc1ccc(/C=C/C(=O)NCCCn2ccnc2)cc1 | i | -0.6 | 1.5 | 4.8 | 2.5 | 1.8 | -7.4 | 0.8 | 2.5 | 4.7
O=c1c2ccccc2c(C=Nc2ccccc2O)c(O)n1-c1nccs1 | nt | 0.1 | 4.2 | 1.9 | 2.9 | 4.7 | 0.5 | 41.1* | -4.7 | 11.1
Cc1cc(C)cc(C(=O)Nc2ccc(N3CCN(C(=O)c4ccco4)CC3)cc2)c1 | i | -2.1 | 4.2 | nt | 1.5 | 5.7 | 3.3 | 3.2 | 2.8 | 2.2
COc1cccc(C2=NN(C(=O)c3cccs3)C(O)(C(F)(F)F)C2)c1 (stereo not given) | i | -6.4 | -1.3 | 3.8 | -7.3 | -9.5 | -1.9 | 2.3 | 19.6 | nt
COC(C/C=C\[C@H](O)[C@H](C)OCc1ccccc1)OC | i | -5.8 | -1.5 | -1.7 | 1.2 | 9.4 | -3.1 | 2.7 | 3.0 | -7.2
Cc1ccc(OCCCN2C(=O)C(=O)c3cc(C)ccc32)cc1 | i | -4.1 | -10.6 | -4.6 | 0.8 | -6.2 | 17.6 | 3.1 | -10.4 | 0.8
COC(=O)c1cc(=O)n(Cc2ccc3c(c2)OCO3)c(=Nc2ccc(F)cc2)s1 | i | -3.1 | 1.1 | 1.0 | 2.5 | -1.0 | -2.0 | -1.2 | -9.3 | -11.7
O=C(CCCN1C(=O)CSc2ncccc21)N1CCN(c2cccc(C(F)(F)F)c2)CC1 | nt | ? | nt | 5.5 | nt | nt | nt | 3.0 | 14.3 | 7.2
O=[N+]([O-])c1cccc(-c2n[nH]c(=S)n2-c2ccc(Br)cc2)c1 | i | 33.6 | -3.9 | 11.1 | -6.4 | -16.2 | -0.8 | 22.7* | -12.5 | 94.8*
CCN(c1ccccc1)c1cc2ccccc2c(=O)[nH]1 | i | 8.3 | 2.3 | 3.9 | 4.2 | 0.4 | 2.6 | -2.7 | 16.4 | 44.5
